Screening data from PubChem BioAssay.
miR-21 reporter – raises the signal of a miR-21 reporter. Potency, µM (top dose mostly 38.3 µM), without a hit: at the highest dose reporter change, positive = more light. AID 2288. HeLa miR-21 FLuc reporter, luciferase, 48 h. 340,000 tested, under 10 active; active = well fitted rising curve with a large enough effect; inconclusive = small, poorly fitted or top-dose-only effect; inactive = no such curve, though single readings can be large or run the other way;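 note: % of control where 0% means no effect; miR-21 action dims this reporter so a rising signal means less miR-21 action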
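HeLa miR-21-FLuc reporter line, endogenous miR-21; 2000 cells/well in DMEM/10% FBS; compound titration up to ~40uM final, 48 h, 37 degree Celsius; luciferase detection reagent, 15 min lysis, CCD luminescence.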
Starred values were filed as active, the others as inactive; ? = inconclusive. This is a subset, so the mix of outcomes need not match the whole.

Molecule	miR-21 reporter
COc1ccc(C2CC(=O)c3cc(-c4nc(-c5cccc([N+](=O)[O-])c5)cs4)c(=O)n(-c4ccccc4)c3C2)cc1 (stereo not drawn)	-3%
Cc1ccc(-c2csc(=Nc3ccccc3)n2CCCO)cc1	?
CCCOc1ccc(CNC(=O)C(CC)n2nc(C)c3sc4ccccc4c3c2=O)cc1 (stereo not drawn)	-38%
COc1cc(Nc2ncc3c(n2)CCN(Cc2cc(F)cc(F)c2)C3)cc(OC)c1	27%
COc1ccc(CN2CCc3c(c(=O)n4ncc(C(=O)N5CCN(c6ccccc6F)CC5)c4n3C)C2)cc1	8%
Cc1ccccc1CN1c2ccccc2-c2nc(SCC(=O)Nc3cc(F)ccc3F)ncc2S1(=O)=O	-1%
COc1ccc(CCNC(=O)Cn2c(=O)c3cccn3c3ccc(F)cc32)cc1OC	-1%
CCC1=Nc2cc(C(=O)NCc3ccccc3OC)ccc2Sc2ccc(Cl)cc21	-3%
Cc1ccc(NC(=O)c2cccc3c(=O)c4c([nH]c23)CCCC4)c(C)c1	-46%
CCOc1ccc(NC(=O)c2c(NC(=O)Cc3ccccc3)sc3c2CCC(C)C3)cc1 (stereo not drawn)	-10%

Additional results
Molecule	miR-21 reporter
COc1cccc(CN2c3ccccc3-c3nc(SCC(=O)Nc4ccccc4Cl)ncc3S2(=O)=O)c1	0%
CCC(C)NC(=O)c1ccc(Cn2c(=O)c3cccn3c3cccnc32)cc1 (stereo not drawn)	-7%
Cc1cccc(CSc2nc(-c3cccc(C)c3)nc3c2Cc2c(CO)cnc(C)c2O3)c1	-1%
CCOCCCNC(=O)c1ccc(NC(=O)N2CCCCc3ccccc32)cc1	-3%
CCc1cc2c(cc3c(=O)n(CC(=O)N4CCC(C)CC4)nc(CC)n32)s1	-11%
CCOc1ccc(NC(=O)CN2C(=O)CC(C)Sc3ccccc32)cc1 (stereo not drawn)	2%
CCOc1cc(C(=O)Nc2ccc3oc(-c4ccc(CC)cc4)nc3c2)cc(OCC)c1OCC	1%
COc1cccc(OC)c1Cn1nnc2c(=O)[nH]c(C3CCN(C(=O)c4ccccc4)CC3)nc21	4%
CCOc1ccc(NC(=O)C2CCN(c3nnc(-n4c(C)ccc4C)s3)CC2)cc1	8%
COc1ccc(C2CC(=O)N(Cc3cccc(C)c3)c3c2c(C)nn3-c2nc(C)cc(C)n2)c(OC)c1 (stereo not drawn)	-3%

(continued)
Molecule	miR-21 reporter
COc1cccc(-c2cc(C(=O)Nc3cc(Cl)ccc3O)on2)c1	18%
CCCOc1ccc(NC(=O)CC2C(=O)N(c3ccc(Cl)cc3)C(=O)N2CCc2ccncc2)cc1 (stereo not drawn)	29%
Cc1cc2nc(-c3ccc(OCc4ccccc4F)cc3)cc(C(F)(F)F)n2n1	-7%
COc1ccc(CNC(=O)Cn2c(SCC(=O)N(C)c3ccccc3)nc3ccccc32)cc1	5%
Cc1ccccc1OCc1ccc(-c2nc(C#N)c(NCc3cccnc3)o2)o1	8%
O=S(=O)(c1ccc(Cl)cc1)c1nc(-c2cccs2)oc1SCc1ccc(F)cc1	13%
CC(C)OCCCNC(=O)c1ccc(Cn2c(=O)c3cccn3c3cccnc32)cc1	1%
Cc1ccccc1NC(=O)c1nc(-c2ccncc2)no1	3%
O=C(Nc1cccc(C(F)(F)F)c1)C1CCN(c2nnc(-n3cccc3)s2)CC1	-2%
Cc1ccccc1CN1C(=O)c2ccccc2Sc2ccc(C(=O)N3CCOCC3)cc21	8%

An excerpt from above in order of their number in miR-21 reporter, descending:
Molecule	miR-21 reporter
COc1cccc(-c2cc(C(=O)Nc3cc(Cl)ccc3O)on2)c1	18%
O=S(=O)(c1ccc(Cl)cc1)c1nc(-c2cccs2)oc1SCc1ccc(F)cc1	13%
Cc1ccccc1NC(=O)c1nc(-c2ccncc2)no1	3%

(cont.)
Molecule	miR-21 reporter
CCc1ccccc1N(C)C(=O)c1cn(-c2cccc(OC)c2)c(=O)c2ccccc12	-4%
CCN1CCN(CCCNC(=O)c2cnn(-c3ccccc3)c2C2CCN(C(=O)OC(C)(C)C)CC2)CC1	-2%
COc1ccc(-c2onc(C)c2C)cc1S(=O)(=O)NCc1ccc(Br)cc1	23%
CCCCN(C)C(=O)C1CCCN(c2ncnc3onc(C)c23)C1 (stereo not drawn)	?
COc1cc(Cl)c(C)cc1NC(=O)C1CCCN(c2ncnc3onc(-c4ccc(F)cc4)c23)C1 (stereo not drawn)	8%
Cc1nc2sccn2c(=O)c1S(=O)(=O)Nc1cc(C(F)(F)F)ccc1Cl	-9%
COc1ccc(CC(=O)NCc2nc3cccnc3n2Cc2ccc(C)cc2)cc1	-5%
COc1ccc(S(=O)(=O)c2cn(Cc3ccccc3)c3cc(N4CCCC4)c(F)cc3c2=O)cc1	-1%
CCOc1ccccc1NC(=O)C1CCN(S(=O)(=O)c2ccc3c(c2)CCCN3C(C)=O)CC1	0%
Cn1cc(C(=O)N2CCN(c3cccc(C(F)(F)F)c3)CC2)c2c3ccccc3n(C)c2c1=O	29%

The results go on.
Molecule	miR-21 reporter
Cc1cccc(C)c1Nc1c(-c2ccsc2)nc2ccccn12	23%
O=C(c1ccc2c(c1)N(Cc1ccccc1F)C(=O)c1ccccc1S2(=O)=O)N1CCCCC1	1%
Cc1c(C)n(Cc2ccc(F)cc2)c2ccc(C(=O)N3CCN(c4ccc(Cl)cc4)CC3)cc12	2%
CCOc1ccc(CCNC(=O)c2nn(C)c3c2CSc2ccc(C)cc2-3)cc1OCC	18%
CCOC(=O)c1c(C)[nH]c(CCC(=O)Nc2ccc(C)c(F)c2)c1C	5%
CCOc1ccc(CN2CCc3nc(Nc4ccc5c(c4)OCCO5)ncc3C2)cc1	-9%
Cc1ccc2c(=O)cc(C(=O)Nc3c(C)n(C)n(-c4ccccc4)c3=O)oc2c1C	-2%
O=C(Nc1ccc2nc(SCC(=O)N3CCOCC3)sc2c1)c1cccc(F)c1	27%
O=C(Cn1c(=O)n(-c2ccc(Cl)cc2)c(=O)c2c3c(sc21)CCCCC3)Nc1cccc(Cl)c1	1%
O=C(CSc1nc(=O)n(Cc2ccncc2)c2c1CCC2)Nc1ccc(F)cc1F	-1%

Next section.
Molecule	miR-21 reporter
COc1ccccc1C(=O)N1c2ncnn2C2(CCCCC2)[C@@H]2CCCC[C@@H]21	29%
COc1ccccc1CNC(=O)c1cnn(-c2ccc(F)cc2F)c1C1CCN(C(=O)OC(C)(C)C)CC1	7%
CCc1cc(C(=O)Nc2cnn(Cc3ccc(F)cc3)c2)no1	-6%
COc1ccc(C2C(C(=O)Nc3cccnc3)=C(C)Nc3nc(SCc4ccccc4)nn32)cc1 (stereo not drawn)	1%
CCC1CN(C(=O)Nc2ccccc2C(F)(F)F)c2ccccc2O1 (stereo not drawn)	?
CN1C(=O)C(C)(C)c2cc(S(=O)(=O)NCc3ccc(C(=O)Nc4ccc(Cl)cc4)cc3)ccc21	?
O=C(NCc1ccc2c(c1)CCN2C(=O)c1ccc(F)cc1)c1cc2ccccc2[nH]1	?
Cc1ccc(NC(=O)CSc2nc3ccccc3c3nc(CCn4c(C)nc5ccccc54)nn23)cc1F	1%
Cc1cc(Nc2cc(F)ccc2C)nc(-n2nc(C)cc2C)n1	28%
CCCCOc1ccc(C(=O)Nc2ccc3c(c2)N(C(C)=O)CCC3)cc1	4%

Additional compounds
Molecule	miR-21 reporter
COc1cccc(-n2c(=O)c3c(C)c(C)sc3n(CC(=O)NCc3ccccc3)c2=O)c1	-2%
Cc1ccc(N2CC(c3nc4ccccc4n3CCC3CCCCC3)CC2=O)cc1 (stereo not drawn)	-2%
COc1ccc(NS(=O)(=O)c2ccc3[nH]c4c(c3c2)CCCC4)c(OC)c1	?
CCc1ccc(NS(=O)(=O)c2ccc(-c3cc(C)no3)cc2)cc1	7%
Cc1cc(Cl)ccc1NC(=O)Cc1ccc(NC(=O)N2CCCCc3ccccc32)cc1	-2%
CCCCN1C(C(=O)c2ccccc2)=C(OC(C)=O)c2ccccc2S1(=O)=O	?
O=C(Cn1cc(SCc2c(F)cccc2Cl)c2ccccc21)N1CCCC1	-24%
CCN(C(=O)Cn1c(C(=O)OC)cc2sccc21)c1cccc(C)c1	-1%
COc1cc(OC)c(NC(=O)Cn2cnc3c(nc4n3CCCCC4)c2=O)cc1Cl	4%
O=C(Nc1ccc2c(c1)OCO2)c1cc(-c2ccc(Cl)cc2)on1	-11%

Further records follow:
Molecule	miR-21 reporter
CC(C)(C)OC(=O)N1CCC(c2c(C(=O)NCc3ccco3)cnn2-c2ccc(F)cc2)CC1	9%
COC(=O)c1ccc(NC(=O)CSc2nc3cc4ccccc4cc3[nH]2)cc1	-1%
COC(=O)c1ccccc1NC(=O)Cc1noc2ccc(C)cc12	0%
Cc1nc2ccccc2n1CCc1nc2c3ccccc3nc(SCC(=O)Nc3ccc(Br)cc3F)n2n1	-4%
Cc1ccc(NC(=O)C(Cc2c[nH]c3ccccc23)NC(=O)OC(C)(C)C)c(C)c1 (stereo not drawn)	-2%
CCN1C(=O)c2ccccc2Sc2ccc(NC(=O)Nc3cccc([N+](=O)[O-])c3C)cc21	1%
COc1ccc(C(=O)N2CCN(c3nc4c(OC)cccc4s3)CC2)cc1OC	12%
COCCN1C(=O)c2[nH]nc(-c3ccccc3O)c2C1c1ccc(Cl)c(Cl)c1 (stereo not drawn)	?
CCc1ccc(-c2ccc(C(=O)Oc3ccc(Br)cc3)cc2)nc1	-10%
CCOc1ccc(-n2c(/C=C/c3cccc(F)c3)nc3cc(OC)c(OC)cc3c2=O)cc1	0%

The list goes on.
Molecule	miR-21 reporter
O=C(Nc1ccc2oc(-c3ccc4ccccc4c3)nc2c1)c1ccc(Cl)c(Cl)c1	3%
COc1ccc(CCNC(=O)c2ccc3c(c2)sc2nc(-c4ccccc4)cn23)cc1OC	10%
Cc1ccc(C(=O)Nc2ccc3c(c2)OCO3)cc1Cl	-43%
CCOC(=O)N1CCc2c(sc(NCc3ccc(N(CC)CC)cc3)c2C(=O)Nc2cc(OC)ccc2OC)C1	5%
Cc1ccc2c(c1)c1c(c(=O)n(-c3ccccc3C)c(=O)n1CC(=O)N1CCCC1)n2C	-1%
CCOc1cc(Cl)c(S(=O)(=O)n2ccnc2)cc1Cl	-5%
CC1=C(C(=O)Nc2ccccc2Cl)C(c2cccc(O)c2)n2ncnc2N1 (stereo not drawn)	-1%
O=C(Nc1ccc(F)cc1F)c1noc2c1CCc1ccccc1-2	-45%
Cc1ccc(OCc2nc3ccccc3n2CCOc2ccc(Cl)cc2)cc1	-2%
Cc1ccc(C)c(NC(=O)c2cc(=O)c3cc(C)cc(C)c3o2)c1	0%

Two entries from above, field by field:
structure: CC1=C(C(=O)Nc2ccccc2Cl)C(c2cccc(O)c2)n2ncnc2N1 (stereo not drawn)
  miR-21 reporter: -1%

structure: O=C(Nc1ccc(F)cc1F)c1noc2c1CCc1ccccc1-2
  miR-21 reporter: -45%

Remaining list, next part.
Molecule	miR-21 reporter
COc1ccc(-n2nc3ccc(NC(=O)c4c(OC)cccc4OC)cc3n2)cc1	-7%
COc1ccc(-c2noc(-c3cc(C(C)C)[nH]n3)n2)cc1	-66%
Cc1cc(F)ccc1NC(=O)CCS(=O)(=O)c1cc2c(cc1C)NC(=O)CO2	-9%
CCc1cccc2sc(N3CCN(C(=O)c4cc5ccccc5cc4OC)CC3)nc12	-5%
Cc1ccc2c(c1)c1nnc(SCC(=O)NC3CC3)nc1n2C	14%
COCCNc1oc(-c2ccc(COc3ccc(OC)cc3)o2)nc1C#N	10%
Cc1ccccc1OCC(=O)Nc1ccc(C(=O)OCc2cc(=O)n3ccsc3n2)cc1	-12%
COc1cc(NC(=O)c2cc(-c3cccs3)on2)c(OC)cc1Cl	0%
CC(C)/C=C/CN1CCC(Oc2ccc(C(=O)N3CCCC3)cc2)CC1	-7%
Cc1ccc(-n2ncc(C(=O)Nc3ccc4c(c3)OCCO4)c2C2CCN(C(=O)OC(C)(C)C)CC2)cc1	-10%

Molecules above that contain a cyano group (2):
Molecule	miR-21 reporter
Cc1ccccc1OCc1ccc(-c2nc(C#N)c(NCc3cccnc3)o2)o1	8%
COCCNc1oc(-c2ccc(COc3ccc(OC)cc3)o2)nc1C#N	10%

Next section.
Molecule	miR-21 reporter
Cc1ccc(NC(=O)CCC(=O)N2CCSc3ccccc32)cc1	14%
CCOc1ccc(C(=O)N2CCC(c3ccncc3)CC2)cc1	16%
N#Cc1cc2c(=O)n3ccccc3nc2n(-c2nnc(SCc3ccccc3)s2)c1=O	-1%
COc1ccc(Cn2c(C(=O)O)c(CNCc3ccc(OC)cc3OC)c3ccc(C)cc32)cc1	0%
Cc1ccccc1Nc1c(-c2cccs2)nc2cccc(C)n12	13%
CCCc1nc2ccccc2n2c(-c3ccc(C)cc3)c3c(=O)n(C)c(=O)n(C)c3c12	-9%
Cc1ccc(C)c(NC(=O)Cn2cc(C(=O)C3CCCCC3)c3ccccc32)c1	16%
COc1ccc(-c2cc3nc(N)cc(=O)n3[nH]2)cc1	-42%
Cc1ccc(-c2nc3sc(CCNC(=O)c4ccco4)c(C)n3n2)cc1	-21%
COc1ccc(CNC(=O)c2ccc(CS(=O)(=O)c3ccc(OC)cc3)o2)cc1	3%

Later entries.
Molecule	miR-21 reporter
O=C(O)c1cc(-c2ccc(/C=c3\sc4nc5ccc(Br)cc5n4c3=O)o2)ccc1Cl	-4%
O=C(CC1NCCNC1=O)Nc1ccccc1F (stereo not drawn)	-3%
Cc1c(C(=O)Nc2ccc(F)cc2F)nnn1-c1ccccc1Br	1%
COc1cc2ccccc2cc1C(=O)N1CCN(c2nc3ccc(F)cc3s2)CC1	4%
CCOc1ccccc1NC(=O)c1c(NC(=O)c2ccccc2)sc2c1CCCC2	0%
COc1ccc(CNC(=O)COCc2cc(-c3cccs3)on2)cc1	-8%
